# Source: PubChem
# VACV Venus inh: vaccinia inhibition (Venus reporter); Vaccinia virus Venus reporter expression, fluorescence; Potency, µM (top dose mostly 36.5 µM), for inactives: at the highest dose activity change, negative = inhibition, usual class: inhibitors; actives 0.46% (n = 330,000); active means well fitted inhibition curve with a large enough effect; inconclusive means small, poorly fitted or top-dose-only effect; inactive means no such curve, though single readings can be large or run the other way; tested in A549 cells; further: nearly all actives have a fitted effect of over 30% in size; inactives centre near -10
# Vaccinia mCherry: inhibitors of vaccinia virus infection (mCherry reporter signal); Vaccinia virus mCherry reporter infection, fluorescence; about a quarter of the inactives have no number; Potency, µM (series often up to 36.5 µM), without a hit: at the highest dose activity change, negative = inhibition, usual class: inhibitors; actives 0.63% (n = 310,000); active = well fitted inhibition curve with a large enough effect; inconclusive = small, poorly fitted or top-dose-only effect; inactive = no such curve, though single readings can be large or run the other way; tested in A549 cells; further: nearly all actives have a fitted effect of over 35% in size; inactives centre near -10
# An asterisk follows results filed as active; i = inactive; ? = inconclusive; · = no result given; & = joins results of further samples; [ ] = remark or other dose. On the % scale 0 is the no-effect control and ±100 the full control effect; potency means the concentration at half of the fitted maximal effect. Outcome played no part in choosing rows, and some 0.86% of all compounds hit somewhere here.
SMILES,VACV Venus inh,Vaccinia mCherry
CCC(C)Sc1cc(-c2nc3ccc(Cl)cn3c2NC2CCCCC2)ccc1OC (stereo not drawn),?,?
CC(=O)c1ccc(Sc2nnnn2-c2ccccc2)c([N+](=O)[O-])c1,-3%,-5%
COc1ccc(CC(=O)Nc2c3c(nn2C(C)(C)C)CS(=O)(=O)C3)cc1OC,-1%,-4%
COc1ccc(N2Cc3cccc(C(=O)Nc4ccc(C)cc4)c3C2=O)cc1,-24%,-17%
CC1(C)CC(=O)C2=C(C1)OC(N)=C(C#N)C2c1cccs1 (stereo not drawn),-11%,-21%
Clc1ccc(Oc2cnns2)cc1Cl,-2%,·
CCCc1cc(=O)[nH]c(SCC(=O)Nc2sccc2C#N)n1,-7%,-9%
O=C(CNC(=O)c1ccccc1)OCN1C(=O)c2ccccc2C1=O,-13%,-10%
O=C1CCC([N+](=O)[O-])C(c2ccc(F)c(Br)c2)N1 (stereo not drawn),-5%,i
CCCC(=O)Nc1nnc(SCC(=O)NCc2ccc3c(c2)OCO3)s1,?,?
CCOC(=O)[C@H]1[C@H]2COc3cc(OC)ccc3[C@@H]2N2C(=O)N(c3ccc(Cl)cc3)C(=O)[C@@]12C,-24%,-24%
Cc1ccc(S(=O)(=O)Nc2ccc(-c3ccc(N4CCCCCC4)nn3)cc2)c(C)c1,-16%,-19%
CCC1Sc2ccc(S(=O)(=O)CCC(=O)NC3CCCCCC3)cc2NC1=O (stereo not drawn),-22%,-1%
CCCCNC(=O)C1(C)CCN1C(=O)c1cc(F)ccc1C (stereo not drawn),-5%,19%
CO[C@@H]1CN(C)C(=O)c2cc(NC(=O)NC3CCCCC3)ccc2OC[C@@H](C)N(CCc2ccccc2)C[C@@H]1C,-29%,?
Cc1ccc(C(=O)NCC(=O)NCc2ccccc2F)s1,-10%,i
O=C(OCC(O)C(O)C(O)COC(=O)c1ccccc1)c1ccccc1 (stereo not drawn),-10%,0%
CCCCOCCCNC(=O)N[C@H](C(=O)OC)C(C)CC (stereo partly drawn),-21%,-12%
COc1ccc(Br)cc1CNC(=O)C1CCN(S(=O)(=O)N2CCCC2)CC1,-12%,-14%
COC(=O)c1ccc(NC(=O)CSc2nnc(-c3ccccc3)n2C)cc1,-14%,-24%
Cc1cc(C)nc(/N=C(\N)Nc2cccc([N+](=O)[O-])c2)n1,-18%,-17%
O=C(Cn1c(NCCCO)nc2ccccc21)c1ccc(Cl)cc1Cl,-17%,-29%
Cc1ccc(-n2c(=O)c3ccc(C(=O)NCc4ccco4)cc3n(Cc3ccc(Cl)cc3)c2=O)cc1,-13%[7.34 µM],-8%[7.34 µM]
NC(=O)C1CCN(C2CC(=O)N(c3cccc(F)c3)C2=O)CC1 (stereo not drawn),-3%,·
Cn1sccc1=O,-9%,i
COC(=O)c1sccc1S(=O)(=O)N1CCN(c2ccc(Cl)cc2)CC1,-1%,-5%
CCOC(=O)C(Nc1ccc2ccccc2c1)C(=O)OCC,5%,-22%
FC(F)Oc1ccc(NC(=S)N2CCN(Cc3ccccc3)CC2)cc1,-19%,-11%
COc1cc(C2C(C(=O)c3ccc(C)o3)=C(O)C(=O)N2CCCn2ccnc2)cc(OC)c1OC (stereo not drawn),-13%,-19%
COc1ccc(CCNC(=O)/C(C#N)=C2\N=C(NC(=O)c3cccs3)c3ccccc32)cc1,-14%,-3%
CC(OC(=O)CCC(=O)c1ccc(F)cc1)C(=O)NC1CCCCC1C (stereo not drawn),-5%,-7%
O=c1c2ccccc2nc(/C=C/c2ccccc2)n1-c1ccccc1F,-6%,-6%
CCN(CC(=O)Nc1c(F)cccc1F)C(=O)C1CCCN(C(=O)c2ccc(Cl)cc2)C1 (stereo not drawn),-11%,-13%
Cc1ccc([C@H]2C[C@@H](n3cc(COC(=O)c4ccccc4)nn3)[C@H](O)CN2C(=O)C2CCCCC2)cc1,-29%,i
Cc1cc(NCCO)c2cc(O)ccc2n1,-6%,i
O=P(O)(O)C(O)c1ccc2ccccc2c1 (stereo not drawn),-14%,-3%
COC(=O)C1CCN(c2ccc(Cl)nn2)CC1,-6%,i
c1csc(-c2nc(CN3CCSCC3)cs2)c1,-10%,-15%
CC(=O)C(Sc1nc(NC(C)(C)C)nc(N(C)C)n1)C(C)=O,-14%,i
COc1cccc(C(=O)N2CCN(Cc3ccco3)CC2)c1OC,-2%,·
NC(=O)CC(NC(=O)c1ccc(Br)cc1)c1ccc(N2CCC(Br)CC2)c([N+](=O)[O-])c1 (stereo not drawn),?,i
Cc1ccsc1/C=N/NC(=O)Cc1cccn1C,-15%,-15%
C[C@@H]1CN([C@@H](C)CO)C(=O)CCCn2nncc2CO[C@H]1CN(C)S(=O)(=O)c1cccc(C#N)c1,-6%,i
COc1ccccc1/C=C/C(=O)OCC(=O)Nc1ccccc1Sc1ccccc1,-5%,i
COc1ccc(S(=O)(=O)Nc2c(F)cccc2F)cc1,-7%,4%
C/C(N)=C(/C#N)C(=O)COC(=O)COc1ccc(Cl)cc1,3%&-11%,-12%&-9%
COc1cccc(NC(=O)N2CCOCC2)c1,-13%,·
COc1cc(O)c(C(=O)CC(=O)c2ccncc2)c(OC)c1,-5%,i
COc1cccc(/C=N/NC(=S)NCCc2ccccc2)c1OC,-3%,i
Cn1nc(N)nc1N1CCN(c2ccc(F)cc2)CC1,-5%,i

# (further entries)
SMILES,VACV Venus inh,Vaccinia mCherry
CCCN1C[C@@H](C)[C@@H](OC)CN(C)C(=O)c2ccc(NC(=O)c3cccc(F)c3)cc2OC[C@H]1C,-8%,-9%
COc1ccc(/C=N/NC(=O)CCn2c3ccccc3c3ccccc32)cc1O,-24%,-29%
CCCn1c(=S)[nH]c2cc(C(=O)NCC3CCCO3)ccc2c1=O (stereo not drawn),-14%,i
CCN1C(=O)[C@H]2[C@@H](c3ccc(-c4ccc(F)cc4)cc3)N[C@@](Cc3ccccc3)(C(=O)OC)[C@H]2C1=O,-27%,0%
CCN1C(=NCC(C)C)N[C@@H](c2cccc(F)c2)C(C(=O)OC)=C1C,-23%,-5%
CCN(CC)S(=O)(=O)c1ccc(Cl)c(NC(=O)COC(=O)/C=C/c2cc(OC)c(OC)c(OC)c2)c1,-12%,-21%
CC(c1ccco1)N(C(=O)CSc1ccc(Br)cc1)c1ccccn1 (stereo not drawn),?,?
COc1ccc(OCCN2CCC(C(=O)NC(c3ccccn3)c3ccccc3OC)CC2)cc1 (stereo not drawn),-22%,-15%
CCCCN(CCCC)CCCN1CC(=O)N2[C@@H](Cc3c([nH]c4ccccc34)C2(C)C)C1=O,-26%,?
CC1Cc2nc(SCC(=O)N3CCOCC3)n(C)c(=O)c2S1 (stereo not drawn),-11%,-12%
CSc1ccc(C(=O)C(C)(C)N2CCOCC2)cc1,-12%,i
NP(=O)(Oc1ccc(Cl)cc1)Oc1ccc(Cl)cc1,-9%,-2%
Cc1ccc(-c2cc(C(=O)N/N=C/c3ccccc3O)n[nH]2)o1,?,?
CN(C)c1ccc(CNC(=O)C(Cc2ccccc2)NS(=O)(=O)c2ccc3c(c2)oc(=O)n3C)cc1 (stereo not drawn),5%,-4%
COc1ccc(/C=C/C(=O)c2cc(C(=O)/C=C/c3ccc(OC)cc3)c(O)cc2O)cc1,-9%,-15%
N#Cc1ccccc1OCC(=O)OCC(=O)c1ccc2c(c1)NC(=O)CO2,-2%,-14%
Cc1ccc(-c2c(C)n([O-])c3c([n+]2=O)CCC3)o1,-6%,·
O=[N+]([O-])c1ccccc1/C=C/CN1CCCC(CO)C1 (stereo not drawn),1%,i
CC(Oc1ccc(Cl)cc1Cl)C(=O)Nc1ccc(O)cc1 (stereo not drawn),3%,0%
O=C(NCCCN1CCN(c2ccccc2F)CC1)C1CC(=O)N(C2CCCC2)C1 (stereo not drawn),-23%,-19%
Cc1ccc(NC(=O)CN(c2ccccc2)S(=O)(=O)N(C)C)cc1,8%,-13%
CCN(C(=O)CSc1nc2ccccc2n1CC(=O)Nc1ccc(F)cc1F)c1ccccc1,-13%,-1%
C=CCOC(=O)C1=C[C@H](C2CC2)[C@@H](CCCO)[C@H](OCC)O1,-1%,i
C=C[C@H]1C(C(=O)OCC)=CC[C@@H](c2ccccc2)N1S(=O)(=O)c1ccc(C)cc1,-4%,-14%
Cc1n[nH]c(=O)c2c(NC(=O)CSc3ncccn3)oc(C)c12,-12%,-24%
COc1ccc(NC(=O)Cn2cc(S(=O)(=O)c3ccc(C)cc3)c(=O)c3ccccc32)cc1OC,-5%,-7%
O=C(NCCSCc1ccccc1)c1ccc(C2SCC(=O)N2Cc2ccccc2)cc1 (stereo not drawn),-11%,-12%
CC(=O)Nc1ccccc1C(=O)C(=O)Nc1cccc(F)c1,-20%,-4%
S=C(Nc1ccccc1)N1CCN(c2ccccc2)CC1,-3%,-22%
O=C(NCCN1CCOCC1)c1cc2sccc2n1Cc1ccc(Cl)cc1,-20%,-7%
O=[N+]([O-])c1ccccc1S(=O)(=O)N1CCCCC1,-14%,i
Cc1ccc(SCC(=O)Nc2cccc(C(=O)NC(C)(C)C)c2)cc1,-18%,-26%
COc1cc(SC)ccc1C(=O)Nc1c(Cl)cncc1Cl,-18%,-28%
Cc1cc(Br)c2c(c1)C1(OCCO1)C(=O)N2,-2%,-3%
Cn1nnnc1SCC(=O)N1CCN(c2ccccc2)CC1,-10%,-18%[1.46 µM]
O=C(CCC(=O)Nc1ccc(F)cc1)N/N=C/c1cc([N+](=O)[O-])ccc1O,-17%,i
COc1ccc(CNC(=O)CCSc2nc(-c3ccc4c(c3)OCO4)cc(C(F)(F)F)n2)cc1,-6%,-12%
CCOC(=O)c1sc(NC(=O)CN2CCN(c3ccc(OC)cc3)CC2)nc1C,-26%,?
Cc1[nH]c2ccccc2c1C(O)c1ccncc1 (stereo not drawn),1%,-4%
OCc1csc(=Nc2ccccc2)n1-c1ccccc1,-12%,-13%
COc1ccc(NC(=O)c2cc(-c3cccs3)on2)cc1,-3%,?
Cc1ccccc1N1C(=O)C2C3C=CC(CC3)C2C1=O (stereo not drawn),-16%,-16%
Cc1ccc(N2CCN(c3c(CN4CCCC4)c(=O)oc4ccccc34)CC2)c(C)c1,-12%,-20%
CCOc1cc(CNC(=O)c2ccc3nc(C(C)C)oc3c2)cc(OCC)c1OCC,-3%,-11%
O=C(O)c1ccc(NS(=O)(=O)c2cc(Cl)ccc2Cl)cc1O,-8%,-15%[1.46 µM]
COc1ccc(C(c2nnnn2C2CCCC2)N2CCC(C(N)=O)CC2)c(OC)c1 (stereo not drawn),-29%,·
COc1cc(C)ccc1OCCOc1c(Cl)cc(Cl)cc1Cl,-30%,·
COc1ccc(NC(=O)c2ccccc2OCc2c(C)noc2C)cc1OC,-16%,-1%
CN(CC(=O)NC(=O)NCc1ccccc1)Cc1ccc(Cl)cc1,-15%,-14%
C#CCNC(=O)C[C@@H]1C[C@@]2(C(=O)OC)CC(C)(C)CC=C2N(Cc2ccco2)C1=O,-11%,-21%

# (further entries)
SMILES,VACV Venus inh,Vaccinia mCherry
CCC(C)NC(=O)[C@H]1N2C(=O)c3c(ccc(OC)c3OC)C2SC1(C)C (stereo partly drawn),-1%,-22%
CCOC(=O)N1CCN(C(=O)CNC(=O)c2ccccc2F)CC1,-16%,-2%
COCC1CCN(C(=O)c2cc(COc3cccc4cnccc34)on2)CC1,-16%,-11%
Oc1ccc(/C=N/n2c(COc3ccccc3)n[nH]c2=S)cc1O,-20%,?
O=C(O)CCC(=O)N1N=C(c2c(-c3ccccc3)c3cc(Cl)ccc3[nH]c2=O)CC1c1ccccc1 (stereo not drawn),-5%,-12%
COc1cccc(NC(=O)CN2CCN(c3ccc(F)cc3)CC2)c1,-3%,·
COc1ccc(C2CC(=O)C=C(NNS(=O)(=O)c3ccc(C)cc3)C2)cc1 (stereo not drawn),-14%,-7%
